# Vaccinia inh = blocks a specific stage of Vaccinia orthopoxvirus infection, primary screen, cell-based, single point; Vaccinia-infected cells, mCherry/Venus stage reporter fluorescence; hits give low values; some inactives read as strong as hits; activity change (mCherry), % (concentration not given with the values); 89,000 compounds, 0.01% hits;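 active = mCherry past -33% and 40 or more points under the early reporter, replicates agreeing; inconclusive = past -33% without that gap or agreement; tested in A549 cells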;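 note: scaled between vehicle wells and reference inhibitor wells; 23 nL library stock went into each well; one replicate is shown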
# Vaccinia inh Venus = recorded beside Vaccinia inh, whose call it bears; activity change (Venus), %; measured here: Venus reporter, other viral stage;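 negative = less Venus signal; first of two replicates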
# * hit, by the source's call; ? = inconclusive; / = not tested or not shown; & = joins results of further samples.
Molecule,Vaccinia inh,Vaccinia inh Venus
C[C@@H]1CCCCO[C@@H](CN(C)S(=O)(=O)c2cn(C)cn2)[C@H](C)CN([C@@H](C)CO)C(=O)c2cc(NC(=O)Nc3ccccc3)ccc2O1,27,22
CC(=O)N(C)C[C@@H]1[C@@H](c2ccc(C3=CCCCC3)cc2)[C@@H](CO)N1CC1CC1,-14,-11
Cc1ccc(S(=O)(=O)N[C@@H]2CC[C@H](CCn3cc(C4CCCCC4)nn3)O[C@@H]2CO)cc1,2,9
CO[C@@H](CN(C)Cc1cc(F)ccc1F)[C@@H](C)CN(C(=O)Nc1ccc(F)cc1)[C@@H](C)CO,-8,1
COc1cccc(NC(=O)N2C[C@@H](O)COC[C@@H]3O[C@H](CC(=O)NC4CCC4)CC[C@H]32)c1,9,8
N#C[C@@H]1[C@@H](c2ccccc2)[C@@H](CO)N1S(=O)(=O)c1ccc(F)cc1,21,3
C[C@H](CO)N1C[C@H](C)[C@H](CN(C)Cc2ccc(-c3ccccc3)cc2)Oc2ccc(NC(=O)NC3CCCCC3)cc2CC1=O,-24,-7
CO[C@H]1CN(C)C(=O)c2ccc(NC(=O)Nc3c(C)noc3C)cc2OC[C@H](C)N(CCC(F)(F)F)C[C@H]1C,2,2
O=C(N[C@@H]1C=C[C@@H](CC(=O)N2CCc3ccccc3C2)O[C@@H]1CO)C1CCOCC1,-1,4
CC(C)C#Cc1ccc2c(c1)O[C@H](CN(C)C(=O)C1CC1)[C@H](C)CN([C@H](C)CO)S2(=O)=O,2,-4
Cc1noc(C)c1S(=O)(=O)Nc1ccc2c(c1)CC(=O)N([C@@H](C)CO)C[C@H](C)[C@H](CN(C)S(=O)(=O)c1ccccc1)O2,14,16
COc1ccc(NC(=O)N(C)C[C@@H]2OCc3cn(nn3)CCCC(=O)N([C@H](C)CO)C[C@H]2C)c(OC)c1,24,18
O=C([C@@H]1[C@@H](CO)[C@@H]2Cn3c(ccc(/C=C/c4ccccc4)c3=O)[C@@H]2N1CC1CC1)N1CCCCC1,-25,-8
C[C@@H]1CN([C@H](C)CO)C(=O)c2cc(C#Cc3ccccc3)cnc2O[C@@H]1CN(C)C(=O)c1ccccc1,-9,-12
C[C@@H]1CN([C@@H](C)CO)C(=O)c2cc(NS(=O)(=O)c3ccc(Cl)cc3)ccc2O[C@@H](C)CCCCO[C@H]1CN(C)Cc1ccncc1,-19,-14
Cc1ccc(S(=O)(=O)N(C)C[C@H]2Oc3ncc(C#CC4(O)CCCC4)cc3C(=O)N([C@H](C)CO)C[C@H]2C)cc1,1,0
C/C=C/c1cnc2c(c1)C(=O)N([C@@H](C)CO)C[C@@H](C)[C@H](CN(C)S(=O)(=O)c1cccs1)O2,-4,9
O=S(=O)(N[C@@H]1CCCN(Cc2ccc(OCCO)cc2)C1)c1ccc(-c2ccccc2)cc1,?,/
C[C@@H]1CCCCO[C@@H](CN(C)C(=O)c2ccncc2)[C@@H](C)CN([C@@H](C)CO)C(=O)c2cc(NS(=O)(=O)c3cn(C)cn3)ccc2O1,27,17
COCC(=O)N1[C@@H]2CN(C(=O)c3ccccc3F)c3ccccc3[C@@H]2[C@@H]1CO,15,9
C[C@@H]1CCCCO[C@@H](CN(C)CC2CC2)[C@H](C)CN([C@H](C)CO)C(=O)c2cc(NC(=O)c3ccccc3)ccc2O1,0,2
C[C@H](CO)N1C[C@H](C)[C@@H](CN(C)C(=O)Nc2cccc3ccccc23)Oc2ccc(NC(=O)C3CC3)cc2CC1=O,1,4
O=C(C[C@@H]1CC[C@H](NC(=O)c2cccnc2)[C@@H](CO)O1)NCc1ccncn1,15,17
COc1cccc(S(=O)(=O)N2C[C@@H](O)COC[C@@H]3O[C@H](CC(=O)N4CCN(c5ccccc5)CC4)CC[C@H]32)c1,-27,-16
CCCC#Cc1ccc2c(c1)O[C@H](CN(C)C(=O)Nc1ccc(OC)cc1)[C@H](C)CN([C@@H](C)CO)S2(=O)=O,?,/
C[C@H](CO)N1C[C@H](C)[C@@H](CN(C)Cc2ccccc2)OCCCC[C@H](C)Oc2ccc(NS(=O)(=O)c3cccs3)cc2C1=O,-30,-22
CC(C)NC(=O)Nc1ccc2c(c1)C(=O)N([C@H](C)CO)C[C@H](C)[C@H](CN(C)C(=O)Cc1ccccc1)OCCCC[C@@H](C)O2,27,15
C[C@H]1CN([C@@H](C)CO)C(=O)CCCn2nncc2CO[C@H]1CN(C)Cc1ccccc1,5,11
CC(C)NC(=O)N1CC[C@@H]2[C@@H](CO)N(C)c3ccc(Br)cc3[C@@H]21,-7,-5
Cc1ccc(S(=O)(=O)N(C)C[C@H]2Oc3ccc(NC(=O)Nc4ccc(C(F)(F)F)cc4)cc3CC(=O)N([C@H](C)CO)C[C@H]2C)cc1,?,/

# Filtered by structure, the compounds so far containing fluorine
Molecule,Vaccinia inh,Vaccinia inh Venus
CO[C@@H](CN(C)Cc1cc(F)ccc1F)[C@@H](C)CN(C(=O)Nc1ccc(F)cc1)[C@@H](C)CO,-8,1
N#C[C@@H]1[C@@H](c2ccccc2)[C@@H](CO)N1S(=O)(=O)c1ccc(F)cc1,21,3
CO[C@H]1CN(C)C(=O)c2ccc(NC(=O)Nc3c(C)noc3C)cc2OC[C@H](C)N(CCC(F)(F)F)C[C@H]1C,2,2
COCC(=O)N1[C@@H]2CN(C(=O)c3ccccc3F)c3ccccc3[C@@H]2[C@@H]1CO,15,9
Cc1ccc(S(=O)(=O)N(C)C[C@H]2Oc3ccc(NC(=O)Nc4ccc(C(F)(F)F)cc4)cc3CC(=O)N([C@H](C)CO)C[C@H]2C)cc1,?,/

# The list goes on.
Molecule,Vaccinia inh,Vaccinia inh Venus
COc1ccccc1CNC(=O)C[C@H]1C[C@H]2c3cc(NC(=O)Nc4ccc(C(F)(F)F)cc4)ccc3O[C@H]2[C@H](CO)O1,1,11
COc1ccccc1-c1ccc([C@H]2[C@H]3CN(C(=O)NC4CCCC4)CCCCN3[C@H]2CO)cc1,-28,-25
CCC(=O)N(C)C[C@H]1Oc2cc(C#CC3CCCC3)ccc2S(=O)(=O)N([C@H](C)CO)C[C@@H]1C,-18,-13
CCC(=O)N1[C@@H]2Cn3c(cccc3=O)[C@H]1[C@@H](C(=O)N1CCCCC1)[C@@H]2CO,0,3
CNC[C@H]1Oc2c(NC(=O)c3cnccn3)cccc2C(=O)N([C@@H](C)CO)C[C@H]1C,2,17
COc1ccccc1-c1ccc([C@@H]2[C@@H](C#N)N(C(=O)C3CCOCC3)[C@H]2CO)cc1,-23,0
C[C@H]1CN([C@@H](C)CO)C(=O)c2cc(NS(=O)(=O)c3cn(C)cn3)ccc2O[C@@H]1CN(C)C(=O)NC1CCCCC1,16,5
CCC(=O)Nc1ccc2c(c1)C(=O)N(C)[C@H]1CC[C@H](CC(=O)NCCc3ccccc3)O[C@@H]1CO2,5,9
C[C@@H]1CN([C@H](C)CO)C(=O)c2cc(NS(C)(=O)=O)ccc2O[C@@H](C)CCCCO[C@H]1CN(C)S(=O)(=O)c1ccc(F)cc1,11,7
O=C(c1cnccn1)N1CC(=O)N2[C@@H](CO)[C@@H](c3ccc(C#CC4CCCC4)cc3)[C@@H]2C1,-10,-4
C[C@@H]1CN([C@H](C)CO)C(=O)c2cc(C#CC3(O)CCCC3)cnc2O[C@@H]1CN(C)S(C)(=O)=O,14,15
COc1ccc2c3c([nH]c2c1)[C@@H](CO)N(C(=O)c1ccccc1)CC31CN(C)C1,3,5
Cc1noc(C)c1NC(=O)N(C)C[C@H]1Oc2ccc(N(C)C)cc2CC(=O)N([C@H](C)CO)C[C@@H]1C,0,4
O=C(c1ccccc1)N1CC(=O)N2[C@H](CO)[C@@H](c3ccc(C#CC4CC4)cc3)[C@@H]2C1,11,-16
O=C(C[C@H]1C[C@H]2c3cc(NC(=O)NC4CCCC4)ccc3O[C@H]2[C@H](CO)O1)NCc1cccnc1,7,10

# Compound profiles (already shown). Values in the order: Vaccinia inh	Vaccinia inh Venus
# COc1ccc2c3c([nH]c2c1)[C@@H](CO)N(C(=O)c1ccccc1)CC31CN(C)C1 is listed as 3	5
# O=C(c1cnccn1)N1CC(=O)N2[C@@H](CO)[C@@H](c3ccc(C#CC4CCCC4)cc3)[C@@H]2C1 is listed as -10	-4

# (list continues)
Molecule,Vaccinia inh,Vaccinia inh Venus
O=C(N[C@H]1CC[C@@H](CCNS(=O)(=O)c2ccccc2Cl)O[C@H]1CO)c1ccccc1,5,-3
CN(C)CCCNC(=O)C[C@@H]1CC[C@@H]2[C@@H](COc3ccc(NC(=O)c4ccc5c(c4)OCO5)cc3C(=O)N2C)O1,-1,-3
CCNC(=O)[C@@H]1[C@@H](CO)[C@@H]2Cn3c(ccc(-c4ccccc4)c3=O)[C@@H]2N1Cc1ccc2c(c1)OCO2,1,1
C[C@@H]1CN([C@@H](C)CO)C(=O)c2cccc(NC(=O)Nc3ccc(F)cc3)c2O[C@H]1CN(C)Cc1ccc(C(F)(F)F)cc1,-30,-20
CCCNC(=O)Nc1ccc2c(c1)OC[C@@H](C)N(S(C)(=O)=O)C[C@@H](C)[C@H](OC)CN(C)C2=O,14,15
CCNC(=O)C[C@H]1CC[C@@H]2[C@H](COc3ccc(NC(=O)Nc4ccccc4Cl)cc3C(=O)N2C)O1,-4,7
COc1ccc(CN(C)C[C@@H]2Oc3c(NS(=O)(=O)c4ccc(OC)cc4)cccc3C(=O)N([C@H](C)CO)C[C@H]2C)cc1,9,7
Cc1ccccc1S(=O)(=O)N1C[C@H](O)COC[C@H]2O[C@@H](CC(=O)NCCc3ccccc3)CC[C@@H]21,2,-11
C[C@@H]1CN([C@@H](C)CO)C(=O)c2cc(N(C)C)ccc2O[C@@H]1CN(C)Cc1ccc(Cl)c(Cl)c1,-15,-19
COc1cccc(CN2CCCCN3[C@H](C2)[C@@H](c2ccc(C#Cc4cccnc4)cc2)[C@@H]3CO)c1,-26,-20
COCC(=O)N1CC(=O)N2[C@H](CO)[C@H](c3ccc(C#CC4CCCCC4)cc3)[C@H]2C1,-22,-23
CC(C)NC(=O)N[C@H]1C=C[C@H](CC(=O)O)O[C@@H]1CO,10,7
COc1ccc(NC(=O)Nc2ccc3c(c2)C(=O)N([C@@H](C)CO)C[C@@H](C)[C@@H](CN(C)S(=O)(=O)c2cccs2)OCCCC[C@@H](C)O3)cc1,-14,2
O=C(C[C@@H]1C[C@@H]2c3cc(NS(=O)(=O)c4ccc(F)cc4)ccc3O[C@@H]2[C@@H](CO)O1)NCc1cccc(F)c1,1,2
Cc1ccc(S(=O)(=O)N(C)C[C@@H]2Oc3c(NS(C)(=O)=O)cccc3C(=O)N([C@@H](C)CO)C[C@H]2C)cc1,10,4
Cc1noc(C)c1S(=O)(=O)Nc1cccc2c1O[C@H](CN(C)Cc1ccccc1)[C@H](C)CN([C@H](C)CO)C2=O,10,3
C[C@@H]1CN([C@@H](C)CO)C(=O)c2cccc(NC(=O)c3nc4ccccc4s3)c2O[C@H]1CN(C)Cc1ccc2c(c1)OCO2,-28,-26
COCCNC(=O)[C@@H]1[C@@H](CO)[C@@H]2Cn3c(cccc3=O)[C@H]1N2S(=O)(=O)c1ccccc1C,9,11
Cc1cc(C(=O)Nc2ccc3c(c2)C(=O)N(C)[C@H]2CC[C@@H](CC(=O)N[C@@H](C)c4ccccc4)O[C@@H]2CO3)no1,-1,1
C[C@@H]1CN([C@H](C)CO)C(=O)c2cc(NC(=O)CCN3CCOCC3)ccc2O[C@@H]1CN(C)C(=O)Nc1cccc2ccccc12,20,25
CC(C)NC(=O)N(C)C[C@H]1OCCCC[C@@H](C)Oc2ccc(NC(=O)c3ccccc3)cc2C(=O)N([C@@H](C)CO)C[C@@H]1C,-1,-12
Cc1noc(C)c1S(=O)(=O)Nc1ccc2c(c1)CC(=O)N([C@@H](C)CO)C[C@@H](C)[C@H](CN(C)S(=O)(=O)c1cccs1)O2,7,1
CCCC#Cc1cnc2c(c1)C(=O)N([C@H](C)CO)C[C@@H](C)[C@@H](CN(C)C(=O)Nc1cccc(F)c1)O2,-13&-19,-4&-13
C[C@H](CO)N1C[C@H](C)[C@@H](CN(C)Cc2ccncc2)OCCCC[C@H](C)Oc2ccc(NS(=O)(=O)c3ccc(F)cc3)cc2C1=O,-2,4
Cc1noc(C)c1NC(=O)N(C)C[C@@H]1Oc2ccc(NS(=O)(=O)c3ccc(Cl)cc3)cc2CC(=O)N([C@H](C)CO)C[C@H]1C,14,15
C[C@@H]1CCCCO[C@H](CN(C)Cc2ccncc2)[C@@H](C)CN([C@H](C)CO)C(=O)c2cc(NS(C)(=O)=O)ccc2O1,-1,9
CCN1[C@@H]2c3ccc(C4=CCCCC4)c(=O)n3C[C@H]1[C@H](CO)[C@H]2C(=O)N1CCOCC1,15,7
Cc1ccccc1S(=O)(=O)N1[C@H](C#N)[C@H](c2ccc(-c3ccccc3)cc2)[C@H]1CO,-1,3
C[C@@H]1CN([C@H](C)CO)C(=O)c2cccc(NC(=O)NC3CCCCC3)c2O[C@@H]1CN(C)CC1CC1,4,1
Cc1noc(C)c1S(=O)(=O)N(C)C[C@H]1Oc2ccc(NS(=O)(=O)c3cn(C)cn3)cc2CC(=O)N([C@H](C)CO)C[C@H]1C,-3,7

# Only part of the results is shown; count on the stated rates, not on these rows.
